Screening data as filed in PubChem.
rRNA inh HTS = selective bacterial rRNA inhibition in E. coli; GFP signal change (wild-type ribosome), % (test concentration not listed); 1.6% of 350,000 active; E. coli WT GFP vs humanized-ribosome RFP mutants, fluorescence, 24 h; active compounds read low; DMSO median 0, no signal -100;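 active = significant combined selectivity score with lowered wild-type GFP, culture density cut under 30%, mutant RFP and density less affected; inactive = any of these conditions unmet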; also: one replicate is shown; some compounds called inactive have numbers as strong as hits
MLL AF4-AF9 inh = MLL-AF4/AF9 protein interaction inhibition | inhibition, % at 10 µM | AlphaScreen, biotin-AF4 peptide binding to FLAG-AF9 | AID 651704 | P42568 | 0.47% of 350,000 active;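 active = every replicate reaching a set inhibition limit, whatever the replicate mean, cut at about 25% in these data; inconclusive = mean inhibition reaches that limit but some replicates miss it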;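 also: 0% = plate neutral control median and 100% = total signal loss; the record names both 10 and 1 µM as test concentration; the first replicate is given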
Target sequence (P42568 whole entry, looked up): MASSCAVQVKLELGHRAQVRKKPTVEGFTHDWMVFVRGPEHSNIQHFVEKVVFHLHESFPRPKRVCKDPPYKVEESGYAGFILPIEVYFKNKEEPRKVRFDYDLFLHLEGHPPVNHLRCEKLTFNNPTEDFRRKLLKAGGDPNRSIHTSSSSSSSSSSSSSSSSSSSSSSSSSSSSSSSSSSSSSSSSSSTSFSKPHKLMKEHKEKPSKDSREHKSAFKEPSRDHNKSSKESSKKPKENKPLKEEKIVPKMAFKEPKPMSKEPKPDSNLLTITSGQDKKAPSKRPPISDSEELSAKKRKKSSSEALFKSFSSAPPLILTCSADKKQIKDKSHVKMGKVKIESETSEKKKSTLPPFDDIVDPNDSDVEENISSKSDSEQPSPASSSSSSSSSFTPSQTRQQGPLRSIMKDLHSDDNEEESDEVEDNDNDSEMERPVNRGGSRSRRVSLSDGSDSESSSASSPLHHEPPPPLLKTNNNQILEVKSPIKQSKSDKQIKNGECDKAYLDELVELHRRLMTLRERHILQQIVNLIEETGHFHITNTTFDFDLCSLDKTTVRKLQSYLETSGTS
E coli growth = E. coli growth inhibition; Escherichia coli growth, OD600, 23 h; active compounds read low; OD600 absorbance (concentration not given with the values); 0.21% of 330,000 active; AID 1053175;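 active = OD600 absorbance below the run mean of sample wells minus 3.6 SD, in any replicate, cut at about 0.56 in these data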;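 also: stock transfer was 300 nL into about 60 µL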
Vif A3G = HIV-1 Vif–A3G interaction blockers – biochemical, TR-FRET, GST-Vif 1-94, biotin-A3G peptide, dose response retest, primary screen (AID 1117319); TR-FRET GST-Vif / biotin-A3G peptide binding; higher % means a stronger effect; test concentration not given here; strong numbers were not always called active; 0.57% of 260,000 active; inhibition, %; hits with a dose series show IC50 in µM;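 active = above the screen mean plus three standard deviations and confirmed in dose response; inconclusive = results disagree or hit not tested in dose response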;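 also: Vif residues 1-94 fused to GST binding biotinylated APOBEC3G peptide 110-148; 0% = full assay without inhibitor and 100% = GST in place of GST-Vif; retest series ran down from 100 µM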
ALR inh = blocks human ALR sulfhydryl oxidase activity. inhibition, % (test concentration not listed). 3.8% of 290,000 active. purified ALR, DTT oxidation, H2O2 HRP-luminol luminescence;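 active = mean and each replicate at 75% or more; inconclusive = only one of the two met; inactive = neither met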;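 also: stock transfer was 7.5 nL into about 7.5 µL; 0% = neutral wells and 100% = wells with inactivated enzyme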
HNF4A DNA FP = change in binding of human HNF4 alpha to DNA; HNF4a-FITC DNA binding, fluorescence polarization, 1 h; activity change, % at 10 µM; 0.3% of 360,000 active; in the data active = activity change above about 30%, passing the limit was not always enough;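 also: controls were the assay level and a saturating level of protein; the project sought stronger binding though the title names inhibitors; some compounds called inactive have numbers as strong as hits; positive values seem to mean higher polarization but the record does not say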
Target sequence (P41235 whole entry, looked up): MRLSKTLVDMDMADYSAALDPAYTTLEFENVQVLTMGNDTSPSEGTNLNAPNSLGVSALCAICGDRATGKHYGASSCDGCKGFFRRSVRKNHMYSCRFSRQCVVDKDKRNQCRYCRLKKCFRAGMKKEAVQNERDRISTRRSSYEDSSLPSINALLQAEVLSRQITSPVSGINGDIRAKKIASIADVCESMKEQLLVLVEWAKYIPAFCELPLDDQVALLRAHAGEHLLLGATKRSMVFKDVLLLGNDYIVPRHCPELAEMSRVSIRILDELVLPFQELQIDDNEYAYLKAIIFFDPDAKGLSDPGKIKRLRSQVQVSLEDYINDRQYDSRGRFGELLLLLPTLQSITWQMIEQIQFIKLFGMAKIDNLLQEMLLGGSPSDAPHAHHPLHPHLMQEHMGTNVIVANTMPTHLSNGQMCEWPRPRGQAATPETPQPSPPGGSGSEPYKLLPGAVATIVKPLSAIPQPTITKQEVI
FGF22 binding = binders of recombinant human FGF22 by thermal shift; Q9HCT0; SYPRO orange fluorescence; percent of sucrose octasulfate shift, DMSO zero; calls only at 9.99 µM; 1.5% of 340,000 active;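 active = melting point raised past a set limit in the mean and every replicate; inconclusive = no clear call; three in four hits are not shown here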
rRNA inh HTS OD600 = also measured in rRNA inh HTS; calls as there; OD600 change, %; measured here: OD600 growth;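 optical density of the mix in the first replicate; 0 = DMSO median and -100 = no signal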
rRNA inh HTS RFP = also measured in rRNA inh HTS; calls as there; RFP signal change, %; measured here: RFP humanized mutant strains;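 first replicate; 0 = DMSO median and -100 = no signal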
* hit, by the source's call; & = joins results of further samples. This is a subset; the hit share may differ from the screen's.

For CCC(C)NC(=O)C1CCCN(S(=O)(=O)c2ccc(-n3cnnn3)cc2)C1 (centres undefined) the results were E coli growth 0.7, Vif A3G -2%, ALR inh 4 and HNF4A DNA FP -1.5.
For CCN(CC(=O)NC1CCS(=O)(=O)C1)S(=O)(=O)c1cc([N+](=O)[O-])ccc1C (centres undefined) the results were rRNA inh HTS 7, MLL AF4-AF9 inh -2.5, E coli growth 0.72, Vif A3G -1%, ALR inh -13, HNF4A DNA FP 1.4, FGF22 binding inactive, rRNA inh HTS OD600 8 and rRNA inh HTS RFP -3.6.
Screening Cc1nc(SC(C(=O)c2ccccc2)c2ccccc2)n[nH]1 (centres undefined) returned E coli growth 0.73, Vif A3G 0%, ALR inh -2 and HNF4A DNA FP -0.3.
For CC(C)C(=O)NNc1ccc(C(F)(F)F)cn1 the results were rRNA inh HTS 3, MLL AF4-AF9 inh -1.8, Vif A3G -12%, ALR inh 32, HNF4A DNA FP 1.0, FGF22 binding inactive, rRNA inh HTS OD600 4 and rRNA inh HTS RFP 0.8.
`COCCN(C(=O)CSc1nnc(-c2cccc(Cl)c2)n1N)c1c(N)n(CC(C)C)c(=O)[nH]c1=O` gave rRNA inh HTS 9, MLL AF4-AF9 inh -2.5, Vif A3G 0%, HNF4A DNA FP -0.5, FGF22 binding inactive, rRNA inh HTS OD600 20 and rRNA inh HTS RFP -1.3.
Screening Cc1cc(C(=O)Nc2cccc3c2O[C@H](CN(C)CC2CCCCC2)[C@H](C)CN([C@H](C)CO)C3=O)n(C)n1 returned rRNA inh HTS 3, MLL AF4-AF9 inh -19, FGF22 binding inactive, rRNA inh HTS OD600 18 and rRNA inh HTS RFP -1.5.
Screening Cc1ccc(S(=O)(=O)N(C)C[C@@H]2Oc3c(NS(=O)(=O)c4ccc(Cl)cc4)cccc3C(=O)N([C@H](C)CO)C[C@H]2C)cc1 returned rRNA inh HTS -4, MLL AF4-AF9 inh 0.0, FGF22 binding inactive, rRNA inh HTS OD600 -11 and rRNA inh HTS RFP 4.2.
Cc1cc(NC(=O)CC2(CC(=O)O)CCCC2)n(C)n1 was read as rRNA inh HTS 1, MLL AF4-AF9 inh -1.4, E coli growth 0.71, Vif A3G -1%, ALR inh -13, HNF4A DNA FP -0.3, FGF22 binding inactive, rRNA inh HTS OD600 -10 and rRNA inh HTS RFP -1.0.
For C[C@H](O)C#Cc1cnc2c(c1)C(=O)N([C@@H](C)CO)C[C@@H](C)[C@@H](CN(C)C(=O)CC1CC1)O2 the results were rRNA inh HTS -2, MLL AF4-AF9 inh -1.2, FGF22 binding inactive, rRNA inh HTS OD600 -1 and rRNA inh HTS RFP -0.6.
`Cc1ccc(C(=O)N/C(=C\c2sccc2C)C(=O)NCc2ccco2)cc1` gave E coli growth 0.7, Vif A3G 7%, ALR inh 1 and HNF4A DNA FP -0.2.
Screening CC1CCCCC1NC(=O)CCC(=O)N1CCOc2ccc(Cl)cc21 (centres undefined) returned rRNA inh HTS 0, MLL AF4-AF9 inh -4.7, E coli growth 0.68, ALR inh -2, HNF4A DNA FP 3.4, FGF22 binding inactive, rRNA inh HTS OD600 1 and rRNA inh HTS RFP -0.4.
CCOc1ccc(N2CC(C(=O)OCC(=O)NCc3ccccc3)CC2=O)cc1 (centres undefined) was read as E coli growth 0.65, Vif A3G 4%, ALR inh -3 and HNF4A DNA FP -0.5.
`CCCC(=O)C1=C(N2CCCC2)CC(C)(C)C(C(=O)OC)C1=O` (centres undefined) gave rRNA inh HTS 12, MLL AF4-AF9 inh 2.0, E coli growth 0.69, ALR inh -2, HNF4A DNA FP 0.2, FGF22 binding inactive, rRNA inh HTS OD600 -8 and rRNA inh HTS RFP 0.3.
`CN(C)CCCN(C(=O)c1cc(Cl)sc1Cl)c1nc2cc3c(cc2s1)OCO3` gave rRNA inh HTS -19, MLL AF4-AF9 inh 28*, E coli growth 0.66, ALR inh 2, HNF4A DNA FP 3.7, FGF22 binding inactive, rRNA inh HTS OD600 -15 and rRNA inh HTS RFP 1.1.
`N=c1c2c(-c3ccccc3)c(-c3ccccc3)n(Cc3ccco3)c2ncn1CCN1CCOCC1` gave E coli growth 0.71, Vif A3G 3%&4%, ALR inh -7 and HNF4A DNA FP 1.9.
Screening COc1ccc(CC(=O)NNC(=S)NCC2CC2)cc1OC returned rRNA inh HTS 9, MLL AF4-AF9 inh -2.6, E coli growth 0.65, Vif A3G -2%, ALR inh 28, HNF4A DNA FP -0.3, FGF22 binding inactive, rRNA inh HTS OD600 12 and rRNA inh HTS RFP 1.8.
For COc1ccc(Cc2nnc(NC(=O)c3ccccc3[N+](=O)[O-])s2)cc1 the results were rRNA inh HTS -30*, MLL AF4-AF9 inh -3.6, E coli growth 0.71, ALR inh -4, HNF4A DNA FP 0.3, FGF22 binding inactive, rRNA inh HTS OD600 -24* and rRNA inh HTS RFP 1.1*.
Screening CCOC(=O)c1ccc(NC(=O)Cn2nnc(-c3ccccc3)n2)cc1 returned E coli growth 0.73, Vif A3G 22%, ALR inh -11 and HNF4A DNA FP -1.5.
`Cc1nc(C)n(C(C)CNC(=O)c2ccccc2)n1` (centres undefined) gave rRNA inh HTS 13, MLL AF4-AF9 inh -3.7, E coli growth 0.61, ALR inh -5, HNF4A DNA FP 0.8, FGF22 binding inactive, rRNA inh HTS OD600 15 and rRNA inh HTS RFP 3.1.
For O=C1Nc2ccccc2C1=Nc1ccccc1-c1ccccc1 the results were rRNA inh HTS 3, MLL AF4-AF9 inh 0.0, Vif A3G -2%, HNF4A DNA FP -6.8, FGF22 binding inactive, rRNA inh HTS OD600 7 and rRNA inh HTS RFP 0.6.
COCC(=O)N(C)C[C@@H]1Oc2ncc(C#Cc3cccnc3)cc2C(=O)N([C@H](C)CO)C[C@H]1C was read as rRNA inh HTS 8, MLL AF4-AF9 inh -6.5, FGF22 binding inactive, rRNA inh HTS OD600 5 and rRNA inh HTS RFP -1.5.
`CCCCn1nc(C(=O)NCc2ccccc2CN2CCCC2)c2ccccc2c1=O` gave MLL AF4-AF9 inh -0.2, E coli growth 0.69, Vif A3G 5%, ALR inh -3, HNF4A DNA FP -2.9 and FGF22 binding inactive.
`CCCCCCCCNS(=O)(=O)CCNC1CC1` gave rRNA inh HTS -5, MLL AF4-AF9 inh -1.7, HNF4A DNA FP 2.4, FGF22 binding inactive, rRNA inh HTS OD600 -8 and rRNA inh HTS RFP -0.3.
Screening O=C(CSCc1c(F)cccc1Cl)NCc1ccncc1 returned rRNA inh HTS 10, MLL AF4-AF9 inh -2.6, E coli growth 0.7, ALR inh inconclusive, HNF4A DNA FP -1.3, FGF22 binding inactive, rRNA inh HTS OD600 18 and rRNA inh HTS RFP 0.8.
Screening CC(=O)N1c2ccc(S(=O)(=O)N3CCCC(C(=O)NCc4ccc(Cl)cc4)C3)cc2CC1C (centres undefined) returned rRNA inh HTS -23, MLL AF4-AF9 inh 1.1, E coli growth 0.65, ALR inh -1, HNF4A DNA FP 0.1, FGF22 binding inactive, rRNA inh HTS OD600 -6 and rRNA inh HTS RFP 1.0.
`CCCNC(=O)N1C[C@@H](C)[C@@H](OC)CN(C)C(=O)c2cc(NS(=O)(=O)CC)ccc2OC[C@@H]1C` gave rRNA inh HTS 2, MLL AF4-AF9 inh -2.6, FGF22 binding inactive, rRNA inh HTS OD600 3 and rRNA inh HTS RFP 0.3.
For C[C@@H]1CCCCO[C@H](CN(C)Cc2ccc3c(c2)OCO3)[C@@H](C)CN([C@H](C)CO)C(=O)c2cc(NC(=O)Nc3ccc(F)cc3)ccc2O1 the results were rRNA inh HTS 5, MLL AF4-AF9 inh 1.2, FGF22 binding inactive, rRNA inh HTS OD600 -11 and rRNA inh HTS RFP 0.4.
`COc1cccc2cc(C(=O)NCc3ccco3)c(=Nc3ccc(C(=O)O)cc3)oc12` gave rRNA inh HTS 15, MLL AF4-AF9 inh -1.4, E coli growth 0.67, Vif A3G -1%, ALR inh 51, HNF4A DNA FP -0.7, FGF22 binding inactive, rRNA inh HTS OD600 3 and rRNA inh HTS RFP 3.4.
Screening CCC(=O)N1CCc2cc(S(=O)(=O)CCC(=O)N3CCCC(C)C3)ccc21 (centres undefined) returned rRNA inh HTS 3, MLL AF4-AF9 inh 0.7, E coli growth 0.7, ALR inh -21, HNF4A DNA FP -1.0, FGF22 binding inactive, rRNA inh HTS OD600 2 and rRNA inh HTS RFP -1.2.
`CC1(C(=O)NS(=O)(=O)Cc2ccccc2)CCN1C(=O)C1(c2ccc(Cl)cc2)CC1` (centres undefined) gave MLL AF4-AF9 inh -4.3, HNF4A DNA FP 0.0 and FGF22 binding inactive.

In the list so far, 2 contain an aryl thioether with sulfur outside any ring:
Screening Cc1nc(SC(C(=O)c2ccccc2)c2ccccc2)n[nH]1 (centres undefined) returned E coli growth 0.73, Vif A3G 0%, ALR inh -2 and HNF4A DNA FP -0.3.
`COCCN(C(=O)CSc1nnc(-c2cccc(Cl)c2)n1N)c1c(N)n(CC(C)C)c(=O)[nH]c1=O` gave rRNA inh HTS 9, MLL AF4-AF9 inh -2.5, Vif A3G 0%, HNF4A DNA FP -0.5, FGF22 binding inactive, rRNA inh HTS OD600 20 and rRNA inh HTS RFP -1.3.

Later entries
Screening Cc1ccnc(NS(=O)(=O)c2ccc(NC(=O)C34CC5CC(C)(CC(C)(C5)C3)C4)cc2)n1 returned rRNA inh HTS 6, E coli growth 0.7, Vif A3G -4%, ALR inh -2, HNF4A DNA FP -3.7, rRNA inh HTS OD600 8 and rRNA inh HTS RFP 1.7.
Screening COc1ccc(NC(=O)c2ccc(COCC(F)(F)C(F)F)cc2)cc1 returned rRNA inh HTS -5, MLL AF4-AF9 inh -5.7, E coli growth 0.69, Vif A3G 7%, HNF4A DNA FP 0.4, FGF22 binding inactive, rRNA inh HTS OD600 2 and rRNA inh HTS RFP -8.0.
Screening O=C(C[C@H]1C[C@@H]2c3cc(NC(=O)NC4CCCC4)ccc3O[C@@H]2[C@@H](CO)O1)NCCN1CCCCC1 returned rRNA inh HTS 1, MLL AF4-AF9 inh 6.1, FGF22 binding inactive, rRNA inh HTS OD600 -1 and rRNA inh HTS RFP -0.6.
For CCOc1ccccc1NC(=O)Cc1c(F)cccc1Cl the results were rRNA inh HTS 6, MLL AF4-AF9 inh -5.8, E coli growth 0.69, ALR inh -21, HNF4A DNA FP -2.1, FGF22 binding inactive, rRNA inh HTS OD600 12 and rRNA inh HTS RFP 3.3.
Screening COc1ccccc1C1CC(=O)Oc2cc(C)c(Cl)c(C)c21 (centres undefined) returned rRNA inh HTS 6, MLL AF4-AF9 inh -1.5, E coli growth 0.71, Vif A3G -4%, HNF4A DNA FP -4.5, FGF22 binding inactive, rRNA inh HTS OD600 18 and rRNA inh HTS RFP -2.0.
`O=C(O)c1ccc(Sc2ccccn2)c([N+](=O)[O-])c1` gave rRNA inh HTS 4, MLL AF4-AF9 inh -17, E coli growth 0.59, Vif A3G 4%, ALR inh -2, HNF4A DNA FP -7.0, FGF22 binding inactive, rRNA inh HTS OD600 6 and rRNA inh HTS RFP 1.0.
Screening COc1ccc2c3c(n(C)c2c1)[C@@H](CO)N(C(=O)c1ccccn1)CC31CN(C)C1 returned rRNA inh HTS 3, MLL AF4-AF9 inh -3.3, FGF22 binding inactive, rRNA inh HTS OD600 12 and rRNA inh HTS RFP -1.9.
For O=C1Nc2ccccc2Nc2ccc([N+](=O)[O-])cc21 the results were rRNA inh HTS 7, MLL AF4-AF9 inh -1.5, E coli growth 0.67, Vif A3G -1%, ALR inh -10, HNF4A DNA FP -2.1, FGF22 binding inactive, rRNA inh HTS OD600 13 and rRNA inh HTS RFP -0.9.
Screening CCn1c(NC(=O)Nc2ccccc2OC)nc2ccccc21 returned E coli growth 0.77, Vif A3G 0%, ALR inh -15 and HNF4A DNA FP 0.0.
